# Compound activity deposited in PubChem by ICCB-Longwood Screening Facility, Harvard Medical School.
# AID504770 – growth inhibition of E. coli YBA685, primary screen, V. cholerae RctB inhibitors | E. coli YBA685 rctB-dependent plasmid, OD600 growth, 3 h; hits give low values | z-score (concentration not given with the values) | actives 0.27% (n = 130,000) | AID 504770, 2011;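 active = z-score under -2 on both plates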;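 also: wells of about 30 µL received 100 nL stock; score is relative to mean and SD of the test wells; the first replicate is given; strong numbers were not always called active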
# Ba CapD inh – Bacillus anthracis CapD inhibitors, primary screen, biochemical, fluorescence intensity. purified CapD enzyme, fluorescence intensity read-out; hits give low values; some hits fall short of the stated cut. z-score (concentration not given with the values). actives 0.23% (n = 140,000). AID 492967, 2010;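 active = z-score under -4 in either of two replicates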;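 also: stock transfer was 100 nL into about 40 µL; score is relative to mean and spread of the plate; one replicate is shown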
# * = called active by the depositor; · = no result given.
SMILES,AID504770,Ba CapD inh
CCOC(=O)c1sc(NC(=O)CN2C(=O)C3CC=CCC3C2=O)nc1C (centres undefined),-0.5,·
Cc1cc(C)c(C#N)c(Sc2ncnc3c2sc2nc(C)cc(C)c23)n1,-0.85,0.1
Cc1nc2sc(C(N)=O)c(N)c2c(-c2ccccc2)c1C(=O)Nc1ccccc1,0.5,0.33
COc1ccc(CCNC(=S)Nc2c(C)cccc2C)cc1OC,·,-0.71
O=C(c1ccc(S(=O)(=O)N2CCCc3ccccc32)s1)N1CCCC1,-1.1,0.025
O=C1CC(Nc2ccccc2)C(=O)N1c1ccccc1 (centres undefined),·,0.1
Cc1cccc(NC(=O)CCNS(=O)(=O)c2cccc3nonc23)c1C,0.55,-0.27
O=C(CC1SC(=NC2CCCC2)NC1=O)NCc1ccc(Cl)cc1 (centres undefined),0.5,·
Cc1cc(OCCCCCn2ccnc2)cc(C)c1Cl,-0.85,0.22
O=C(O)CSc1nc(-c2ccccc2)cc(=O)[nH]1,-0.35,0.56

# Sorted by molar mass (highest first): part of the list above.
SMILES,AID504770,Ba CapD inh
Cc1cc(C)c(C#N)c(Sc2ncnc3c2sc2nc(C)cc(C)c23)n1,-0.85,0.1
Cc1cccc(NC(=O)CCNS(=O)(=O)c2cccc3nonc23)c1C,0.55,-0.27
O=C(CC1SC(=NC2CCCC2)NC1=O)NCc1ccc(Cl)cc1 (centres undefined),0.5,·

# More results follow.
SMILES,AID504770,Ba CapD inh
O=C(Nc1cccc(-c2nc3ccccc3c(=O)o2)c1)C1CCCCC1,-0.35,-0.03
COc1ccc(-c2[nH]nc3c2C2(C(C#N)=C(N)O3)c3ccccc3-c3ccccc32)cc1,·,-0.33
COc1ccc(C2CC(=O)C=C(NCCC(C)C)C2)cc1 (centres undefined),0.45,·
Clc1ccc(C2Nc3ccccc3-c3nc(C4CC4)nn32)cc1 (centres undefined),-0.25,·
O=C(NC1CCCC1)c1ccc(-n2c(-c3ccccc3)cc3c2CCCC3)cc1,-0.6,64
Cc1nnc(SCc2cc(=O)[nH]c(=S)[nH]2)s1,0.65,-0.55
COc1cc(/C=C/c2nc3cc(Cl)ccc3c(=O)n2-c2ccc(C(=O)O)cc2)cc(OC)c1OC,·,-0.36
Cc1ccc(S(=O)(=O)N(CC(=O)NO)Cc2ccccc2)cc1,-1.1,-0.95
Cc1cccc(C(C)C)c1NC(=O)CN1CCc2ccccc21,-0.55,·
N#CCCn1cc(C=NCc2ccccc2)c(-c2cc3ccccc3o2)n1,-2.1,·
Cc1ccc(P(=Nc2ccc(S(N)(=O)=O)cc2)(Oc2ccccc2)C(C)(C)C)o1 (centres undefined),-0.75,·
Cc1cc(C)n(C(=O)C(C)NC(=O)c2ccccc2)n1 (centres undefined),0.1,·
O=C(CSc1nc2c(c(=O)n1-c1ccc(Br)cc1)SCC2)N1CCc2ccccc21,·,-0.6
COc1nc(NS(=O)(=O)c2ccc(C)cc2)nc(C)c1Br,·,0.56
O=C(O)CC1(CC(=O)Nc2ccc3c(c2)OCCO3)CCCCC1,-0.3,·
O=C1CCN=C(N(C(=O)c2ccco2)c2ccc(F)c(Cl)c2)S1,1.4,-1.2
O=C(CN1CCSCC1)N/N=C/c1ccc(Br)cc1,2.2,-0.83
Cc1nc2c3c(cccc3n1)C(=O)c1ccccc1-2,-0.1,0.41
Cc1cc2c(cc1C)CSC(c1ccc(N(C)CCC#N)cc1)SC2,-0.1,-0.11
CCN(CC(=O)Nc1ccccc1OC)C(=O)CC1CCCC1,0.55,·
COC(=O)c1ccc(CNC(=O)c2ccc(S(=O)(=O)N(C)C)cc2)cc1,-0.55,·
Cc1ccc(S(=O)(=O)Nc2c(O)c3ccccc3oc2=O)c(C)c1,-1.1,0.095
Cc1[nH]c2ccc(CN3C(=O)c4ccccc4C3=O)cc2c1C,0.2,0.45
O=[N+]([O-])c1ccc2nc(SCc3nc4sccn4c3Br)[nH]c2c1,·,-1.2
CCOC(=O)Cc1csc(SCC(=O)c2cc(C)n(-c3ccc(C)cc3)c2C)n1,0.5,·
O=C(Cn1cc(C(=O)C2CC2)c2ccccc21)NCc1cccs1,-1.7,-0.25
Oc1ccc(F)c(F)c1,-0.75,·
Cc1ccccc1-n1nnnc1Sc1nnnn1-c1ccccc1,1.2,·
Fc1ccc(CN2CCc3ccccc3C2)cc1Br,-1.1,0.17
COc1ccc(-c2cc(N)nc(N)n2)cc1,-1.7,1.2
COc1cc(C(=O)NCc2ccccc2)cc(OC)c1OC,-0.05,0.17
CCOC(=O)c1ccccc1NC(=O)c1sc2nc(C)nc(N3CCCCC3)c2c1C,·,0.86
CC1(C)Cc2c(c(N3CCOCC3)nc3sc(C(=O)c4ccccc4)c(N)c23)CS1,·,-0.56
O=c1ccc2nc3ccccc3c(=O)n2[nH]1,-0.6,·
COC(=O)c1cccc(CSc2nc3ccccc3[nH]2)c1,1,-0.17
CC(C)n1c(=O)c2sccc2n2c(=S)sc(-c3ccccc3)c12,-1.2,0.33
O=C(NCCc1c[nH]c2ccccc12)C1CCN(c2nnc(N3CCCC3=O)s2)CC1,2,0.42
CCOC(=O)Cc1csc(/N=C/NO)n1,·,-0.35
Cc1cc(C)c2c(NC(=O)COc3ccc(Cl)cc3)n[nH]c2n1,-0.15,·
CC(C(=O)N1c2ccccc2C(Nc2ccccc2)CC1C)N1C(=O)c2ccccc2C1=O (centres undefined),·,-1.4
O=C(CCn1c(=O)oc2ccccc21)Oc1cccc(Cl)c1,0.6,0.78
CN(Cc1ccccc1)C(=O)CC1(CC(=O)O)CCCC1,0.05,·
Nc1cc(C(F)(F)F)ccc1-n1cccn1,-0.65,·
Oc1cc(-c2nc3ccccc3o2)c(O)cc1-c1nc2ccccc2o1,-0.35,0.14
O=C(Nc1ccnn1C1CCCC1)c1ccc2c(c1)CCC2,-0.35,·
CCN(CC)c1ncnc2c1[nH]c1ccc(C)cc12,-0.6,-0.72
NC(=O)c1ccc(NC(=O)CSc2nc3ccccc3o2)cc1,·,0.09
O=C(Cc1ccc(S(=O)(=O)N2CCCCC2)s1)N1CCc2ccccc21,-1.9,·
CC(C)(C)S(=O)(=O)c1cnc(N2CCCC2)nc1N,·,0.16
O=S(c1c(F)c(F)c(F)c(F)c1F)c1c(F)c(F)c(F)c(F)c1F,-0.35,0.4

# Quoted from the listing, 28 compounds:
SMILES,AID504770,Ba CapD inh
O=C(c1ccc(S(=O)(=O)N2CCCc3ccccc32)s1)N1CCCC1,-1.1,0.025
O=C1CC(Nc2ccccc2)C(=O)N1c1ccccc1 (centres undefined),·,0.1
Cc1cccc(NC(=O)CCNS(=O)(=O)c2cccc3nonc23)c1C,0.55,-0.27
O=C(CC1SC(=NC2CCCC2)NC1=O)NCc1ccc(Cl)cc1 (centres undefined),0.5,·
Cc1cc(OCCCCCn2ccnc2)cc(C)c1Cl,-0.85,0.22
O=C(O)CSc1nc(-c2ccccc2)cc(=O)[nH]1,-0.35,0.56
O=C(Nc1cccc(-c2nc3ccccc3c(=O)o2)c1)C1CCCCC1,-0.35,-0.03
COc1ccc(-c2[nH]nc3c2C2(C(C#N)=C(N)O3)c3ccccc3-c3ccccc32)cc1,·,-0.33
COc1ccc(C2CC(=O)C=C(NCCC(C)C)C2)cc1 (centres undefined),0.45,·
Clc1ccc(C2Nc3ccccc3-c3nc(C4CC4)nn32)cc1 (centres undefined),-0.25,·
O=C(NC1CCCC1)c1ccc(-n2c(-c3ccccc3)cc3c2CCCC3)cc1,-0.6,64
Cc1nnc(SCc2cc(=O)[nH]c(=S)[nH]2)s1,0.65,-0.55
COc1cc(/C=C/c2nc3cc(Cl)ccc3c(=O)n2-c2ccc(C(=O)O)cc2)cc(OC)c1OC,·,-0.36
Cc1ccc(S(=O)(=O)N(CC(=O)NO)Cc2ccccc2)cc1,-1.1,-0.95
Cc1cccc(C(C)C)c1NC(=O)CN1CCc2ccccc21,-0.55,·
N#CCCn1cc(C=NCc2ccccc2)c(-c2cc3ccccc3o2)n1,-2.1,·
Cc1ccc(P(=Nc2ccc(S(N)(=O)=O)cc2)(Oc2ccccc2)C(C)(C)C)o1 (centres undefined),-0.75,·
Cc1cc(C)n(C(=O)C(C)NC(=O)c2ccccc2)n1 (centres undefined),0.1,·
O=C(CSc1nc2c(c(=O)n1-c1ccc(Br)cc1)SCC2)N1CCc2ccccc21,·,-0.6
COc1nc(NS(=O)(=O)c2ccc(C)cc2)nc(C)c1Br,·,0.56
O=C(O)CC1(CC(=O)Nc2ccc3c(c2)OCCO3)CCCCC1,-0.3,·
O=C1CCN=C(N(C(=O)c2ccco2)c2ccc(F)c(Cl)c2)S1,1.4,-1.2
O=C(CN1CCSCC1)N/N=C/c1ccc(Br)cc1,2.2,-0.83
Cc1nc2c3c(cccc3n1)C(=O)c1ccccc1-2,-0.1,0.41
Cc1cc2c(cc1C)CSC(c1ccc(N(C)CCC#N)cc1)SC2,-0.1,-0.11
CCN(CC(=O)Nc1ccccc1OC)C(=O)CC1CCCC1,0.55,·
COC(=O)c1ccc(CNC(=O)c2ccc(S(=O)(=O)N(C)C)cc2)cc1,-0.55,·
Cc1ccc(S(=O)(=O)Nc2c(O)c3ccccc3oc2=O)c(C)c1,-1.1,0.095

# Next part.
SMILES,AID504770,Ba CapD inh
CC(OC(=O)C1=NNC(=O)CC1)C(=O)Nc1ccc(Oc2ccccc2)cc1 (centres undefined),0.15,·
CCc1cc(=O)[nH]c(N2CCCCC2)n1,-0.3,0.065
CN(N)C(=S)Nc1ccccc1,-1.1,·
CCOC(=O)c1c(NC(=O)CSc2nnnn2-c2cc(C)ccc2OC)sc(C(=O)N(CC)CC)c1C,0.05,·
CC1(C)CC(=O)C(C=Nc2ncnc3nc[nH]c23)=C(O)C1,-0.3,-2.1
COC(=O)c1ccc(NCC(=O)N2CCCCCC2)cc1,-1.4,0.1
COc1ccc(OC)c(Nc2nc3ccccc3n3cnnc23)c1,-0.15,1.6
Cc1ccc(NC(=O)CSc2nc3cc(C(=O)NCC4CCCO4)ccc3c(=O)n2Cc2ccco2)cc1 (centres undefined),·,0.79
CSC1=NCCN1S(=O)(=O)c1ccc(Br)cc1,-1.1,-0.76
Cc1ccc(-c2nc(C#N)c(NCCN(C)C)o2)cc1,-0.85,78
CCOc1ccccc1C(=S)N1CCOCC1,-0.8,-0.43
COc1cc(C2C(C(=O)Nc3ccc(Br)cn3)=C(C)NC3=C2C(=O)CCC3)ccc1OCc1ccccc1 (centres undefined),·,50
COc1ccc(-c2[nH]c3ccccc3c2CCC(=O)O)cc1,-1,·
O=[N+]([O-])c1c(NCc2ccccc2)cc(N2CCCCC2)c2nonc12,·,-0.23
O=C(CC1SC(=O)N(CN2CCOCC2)C1=O)Nc1ccccc1 (centres undefined),·,-0.065
Cc1ccc(C(O)CN2C3=NCCN3c3ccccc32)cc1 (centres undefined),·,-0.11
Cc1ccc(C2=N/C(=C\c3ccco3)C(=O)O2)cc1,-2.6,-0.53
CC1CN(C/C(=N/O)C23CC4CC(CC(C4)C2)C3)CC(C)O1 (centres undefined),1.1,-0.95
CCc1cccc2c(C(=O)COC(=O)C3=NNC(=O)CC3)c[nH]c12,-0.35,·
CCOC(=O)C1CCN(C(=O)COC(=O)c2ccc(O)cc2)CC1,0.35,·
CC(=O)N(c1ccccc1)C1SC(=O)N(c2ccccc2)C1=O (centres undefined),-0.25,0.24
CC1CC(Nc2ccccc2)c2ccccc2N1C(=O)C(C)(C)C (centres undefined),·,0.29
CC/C(=N\NS(=O)(=O)c1ccc(C)cc1)c1ccco1,·,-0.21
O=C(CSc1nnc2ccccn12)c1ccc(S(=O)(=O)N2CCCCC2)cc1,-0.2,·
Cc1ccc2c(c1)c1c3n2CCN(CC(=O)c2ccc(Br)cc2)C3CCC1 (centres undefined),·,8.5
CCCN(C(=O)/C=C/c1ccc(N(C)C)cc1)C1CCS(=O)(=O)C1 (centres undefined),1.9,·
CCCOc1ccc(/C=C/C(=O)Nc2ncn[nH]2)cc1OC,-0.8,0.6
O=C(Cc1c[nH]c2ccccc12)OCC(=O)N1CCCC1=O,0.15,·
O=C(CSc1cccc[n+]1[O-])c1ccc(OC(F)F)cc1,-1.1,·
COc1cccc(C(c2c(C)[nH]n(-c3ccccc3)c2=O)c2c(C)[nH]n(-c3ccccc3)c2=O)c1OC,·,0.13
Cc1cc(C)n2ncc(C(=O)N3CCC(C)CC3)c2n1,0.1,18
CCOC(=O)/C(C)=N/Nc1ccc(C)cc1,·,-1.7
CCc1ccc(C(=O)Nc2nncs2)cc1,0.55,0
OCCN1CCN(c2nccc(C(F)(F)F)n2)CC1,·,2.3
Cc1cc(C(=O)NCC2COc3ccccc3O2)nn1C (centres undefined),-0.85,-0.03
Cc1nc2ccc(CO)cc2s1,1.4,-1.3
COc1ccc(-c2nc3ccccc3s2)cc1,-1.3,19
COc1ccc(-c2nc(SCC(=O)N3CCCc4ccccc43)c3c(=O)n(C)c(=O)n(C)c3n2)cc1,0.95,-0.39
O=C(Nc1ccc(N2CCCCC2)cc1)c1ccc(Cl)cc1Cl,-1.1,0.015
CSC(=NC=[N+](C)C)Nc1ccccc1,-0.35,-0.34
CC(C)NC(=O)c1cccn2c(=O)c3c4c(sc3nc12)CCCC4,-0.05,0.14
Cc1cccc(-n2ncc3c2ncn2nc(COc4c(C)cccc4C)nc32)c1,-0.25,-0.41
N/C(=N\O)c1cccs1,-0.45,·
CC(=O)OCN1C(=O)N(COC(C)=O)C2C1N(COC(C)=O)C(=O)N2COC(C)=O (centres undefined),-0.7,5.2
Cc1cc(Br)ccc1SCC(=O)OCC(=O)NC1CCCC1,-0.65,-0.93
COc1ccc(-c2cc(C(F)(F)F)nc(SCCC(=O)N3CCC(C(N)=O)CC3)n2)cc1,-0.25,11
COc1cc(OC)c(C2C(C#N)=C(N)Oc3n[nH]c(-c4cc(OC)c(OC)c(OC)c4)c32)cc1OC (centres undefined),·,-0.055
Cc1n[nH]c(=S)n1CC(=O)N1c2ccccc2CCc2ccccc21,-0.65,·
CCOc1cc(C2C(C(=O)N3CCCCC3)=C(C)NC3=C2C(=O)CC(C)(C)C3)cc(Br)c1O (centres undefined),·,11
